GIV Gai3 FP – inhibitors of GIV GBA-motif binding to rat Galpha-i3. AID 1224905. hit rate 0.42% among 210,000. percent of control (FP), % (test concentration not listed). Galpha-i3/FITC-GIV peptide fluorescence polarization, 90 min; hits give low values; scaled: aluminum fluoride 0%, vehicle 100%. P08753;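 active = replicate mean at 85% of control or lower, very high polarization wells dropped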;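 note: wells of about 15 µL received 100 nL stock; the first replicate is given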
Target sequence (P08753 whole entry, looked up): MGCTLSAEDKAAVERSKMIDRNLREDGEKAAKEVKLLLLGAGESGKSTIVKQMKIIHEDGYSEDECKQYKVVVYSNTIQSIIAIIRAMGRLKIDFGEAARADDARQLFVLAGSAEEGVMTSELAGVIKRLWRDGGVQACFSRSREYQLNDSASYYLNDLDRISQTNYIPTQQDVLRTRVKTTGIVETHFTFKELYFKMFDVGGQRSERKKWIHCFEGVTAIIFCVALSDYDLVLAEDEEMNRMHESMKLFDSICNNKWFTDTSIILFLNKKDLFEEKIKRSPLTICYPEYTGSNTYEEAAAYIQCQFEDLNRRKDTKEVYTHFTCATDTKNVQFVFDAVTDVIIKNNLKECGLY
HCMV UL50-53 inh – disrupts HCMV UL50-UL53 complex binding; hit rate 0.15% among 190,000; inhibition, % (no concentration beside the values); HTRF UL50-UL53 interaction, normalized percent inhibition; AID 1918969;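 active = both replicates at 50% or more, plus weaker picks with an unusually low signal ratio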;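 note: stock transfer was 100 nL into about 20 µL; 0% = negative control wells and 100% = wells with untagged competitor protein; inactives centre near -12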
Sa growth inh – blocks Staphylococcus aureus growth. S. aureus RN4220 growth, OD600, 20 h, 42 °C; hits give low values. relative growth, % (concentration not given with the values). hit rate 0.53% among 170,000;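 active = growth at 42 °C up to 50% and 20 or more points under that at 30 °C, or under 10% at both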;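 note: 300 nL library stock went into each well; scaled to the means of positive and negative controls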
Sa growth inh second temp – also measured in Sa growth inh; calls as there; relative growth, %; measured here: growth at 30 °C;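 optical density after 20 h as mean of two plates; 100% = untreated growth and lower means inhibition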
An asterisk follows results filed as active; . = not tested or not shown; & = joins results of further samples.

SMILES	GIV Gai3 FP	HCMV UL50-53 inh	Sa growth inh	Sa growth inh second temp
O=C(NCc1ccccc1F)c1cccc(NC(=O)N2CCSc3ncccc32)c1	107	.	125	88
CN1C(=S)NC(C)(C)CC1(C)O (stereo unspecified)	104	-6	80	87
Cc1cc(-c2ccc(C)c(S(=O)(=O)N3CCC(c4ccccc4)C3)c2)on1 (stereo unspecified)	104	-34	95	99
C=CCC1C(C)=NN(C(=O)c2ccc(Cl)cc2)C1(C)O (stereo unspecified)	.	0	96	95
Cc1ccc(NC(=O)CN(C)c2ccc(C(F)(F)F)cn2)cc1	.	-30	93	85
COc1cc(NC(=O)COc2ccccc2F)cc(OC)c1OC	109	23	102	101
O=C(NCCc1ccccc1)c1nnc(-c2ccccc2)o1	106	.	74	80
Cn1cc(C(=O)NC2CCCC2)c2[nH]c(=O)n(-c3ccc(F)cc3)c(=O)c21	106	4	.	.
CCOC(=O)c1nc(N2CCCC(C(=O)OCC)C2)c2c3c(sc2n1)CCCC3 (stereo unspecified)	103	-20	.	.
Cc1ccccc1-c1nc(CN2CCN(S(=O)(=O)c3ccc4c(c3)oc(=O)n4C)CC2)c(C)o1	102	-1	.	.
Cc1ccc(C(=O)Nc2nn(C)c3cccc(F)c23)cc1	102	4	103	71
CC1(C)CC(NCc2cccnc2)=CC(=C(C#N)C#N)C1	.	-54	93	96
CCn1c(O)c(C2=NC(=S)NC2=O)c2ccccc21	108	.	97	85
Cc1nc2ncnn2c(N2CCCCC2)c1Cl	101	.	92	83
CCCc1nc(NCc2ccccc2)c(C#N)c2c1CCCC2	106	.	97	94
CCOC(=O)c1ccc(NC(=O)/C=C/c2cccc(C(F)(F)F)c2)cc1	.	-23	112	89
C1CCOC(CN2CCCC2)OC1	107	-10	92	93
O=C(O)CCC(=O)NCc1csc2ccc(Cl)cc12	95	-9	100	86
c1ccc(Nc2ccccc2)cc1	.	-2	105	90
O=C(OCCN1C(=O)c2cccc3c(N4CCOCC4)ccc(c23)C1=O)c1cc(Cl)cc(Cl)c1	99	-10	.	.
O=C(O)c1cccc(-c2cccs2)c1	101	-18	107	98
Cc1ccccc1CSc1ncc(Cl)c(C(=O)Nc2nc3ccc(F)cc3s2)n1	105	10	104	97
CC(Oc1ccc(C(C)(C)C)cc1)C(N)=O (stereo unspecified)	99	18	97	105
O=C(O)c1cc(N2CCN(c3ccccc3)CC2)nc2ccc(NS(=O)(=O)c3cccc(F)c3)cc12	104	-57	.	.
Cn1c(O)c(C=NCC2CCN(C(=S)Nc3ccccc3)CC2)c(=O)n(C)c1=O	105	-15	86	94
Cc1ccc(-c2nc3cccnc3n2CCNC(=O)c2ccc3c(c2)OCO3)cc1	110	-23	.	.
COc1cccc(C(=O)N2CCc3cc(OC)c(OC)cc3C2COc2ccc3c(C)cc(=O)oc3c2)c1 (stereo unspecified)	103	-11	103	91
Cc1ccc(CC23CN4CCN(CC(C4)C2=O)C3)c(C)c1	104	-22	90	80
CCOC(=O)C1CCN(/C=C(\C#N)S(=O)(=O)c2ccccc2)CC1	99	-17	101	91
CCCOc1ccc(N2CC(C(=O)Nc3cccc(Cl)c3Cl)CC2=O)cc1 (stereo unspecified)	103	-12	110	83
Cc1ccc(NS(=O)(=O)c2cccc(C(=O)NN3CCOCC3)c2)cc1	.	-15	72	88
COc1ccccc1NC(=O)Cc1noc(CN(C)Cc2cccs2)n1	.	-10	95	91
O=C(Cn1ncn2nc(-c3ccccc3)cc2c1=O)NCC1CCCO1 (stereo unspecified)	96&97	-5&-2	101	93
O=C(NC1(C(F)(F)F)NC(=O)N(CCc2ccccc2)C1=O)c1ccc(Cl)cc1 (stereo unspecified)	95	-28	107	88
NC(=O)c1sc(-c2ccc(Cl)cc2)cc1NC(=O)CCC(=O)O	102	-112	96	79
COc1ccc(Nc2oc(-c3ccc(OC)cc3)nc2C#N)cc1	99	.	108	86
Cc1[nH]n(-c2nc3ccccc3s2)c(=O)c1C	99	-5	117	58
COc1ccccc1Oc1c(NS(=O)(=O)c2ccc(C(C)(C)C)cc2)nc(-c2ncccn2)nc1OCCO	105	-42&-23&-14	88	91
CCOC(=O)c1ccc(Nc2cc(-c3ccccc3)nc(C)n2)cc1	100&104	-18&-15	98	91
COc1ccc(N2C(=O)CCS2(=O)=O)cc1S(=O)(=O)Nc1ccccc1Oc1ccccc1	105	-21	.	.
CCc1nnc(NC(=O)C2=CN3CCS(=O)(=O)N=C3C=C2)s1	.	-2	95	82
O=C(CN=C1NS(=O)(=O)c2ccccc21)OCC(=O)c1ccccc1	.	-6	97	89
CCCNC(=O)NCc1ccc(N2CCCC2=O)cc1	100	2	97	98
COc1ccc(-n2nc(C(=O)Nc3cc(C)c(Cl)cc3OC)c3c4ccccc4n(C)c3c2=O)cc1	104	-27	94	88
O=C(O)CN1Cc2ccccc2C1	100	-2	99	81
CC1(C)Cc2cccc(OCC(=O)Nc3ccc(OCC(N)=O)cc3)c2O1	98	5	93	81
C=CCNC(=O)CN1CCC(C(O)(c2ccccc2)c2ccccc2)CC1	.	-10	80	88
N#CC1(C(=O)OCC(=O)N2CCN(C(=O)COC(=O)C3(C#N)CCCC3)CC2)CCCC1	.	-26	76	91
COc1ccc(-c2cc(C(=O)NC3CCCCC3C)c3ccccc3n2)cc1 (stereo unspecified)	103	.	95	79
COc1cc(NC(=O)N2CCOc3ccccc32)cc(OC)c1OC	103	.	92	80
O=C(O)C1CCN(c2nc3ccccc3o2)CC1	97	-22	91	85
CC(C)c1nc2cc3c(cc2[nH]1)OCCO3	103	1	.	.
Cc1ccc(CN2CCCC(CO)C2)cc1 (stereo unspecified)	103	12	102	112
CC(Oc1cccc(Cl)c1)n1cncn1 (stereo unspecified)	98	-9	95	91
O=C(O)C1Cc2c([nH]c3ccccc23)C(c2ccc(Br)cc2)N1 (stereo unspecified)	103	-13	.	.
Cc1cccc(NC(=O)C(Cc2ccccc2)n2cccc2)c1C (stereo unspecified)	99	-10	100	88
CCOC(=O)Cc1csc(NS(=O)(=O)c2cn(C)cn2)n1	106	12	99	101
Cc1ccc(NC(=O)CCCn2nc(C)c3c(C)n(-c4ccccc4)nc3c2=O)c(Cl)c1	105	.	95	96
COc1cc2c(=O)n(Cc3ccc(C(=O)NC(C)C)cc3)c(=O)n(CC(=O)N3CCCCC3C)c2cc1OC (stereo unspecified)	105	-30	.	.
Cc1c(Cl)cccc1N1C(=O)c2cc3occc3n2CC1(C)C(=O)NC1CCC(C)CC1 (stereo unspecified)	105	-2	.	.

New compounds follow:
SMILES	GIV Gai3 FP	HCMV UL50-53 inh	Sa growth inh	Sa growth inh second temp
COc1ccc(OCCSc2nc3ccccc3s2)cc1	105	.	93	80
CC(C)CCNC(=O)c1cc2c(=O)[nH]c3ccccc3c2s1	95	-1	90	96
Cn1ccc(NC(=O)/C(C#N)=C/c2ccc(Cl)cc2)n1	98	-25	90	87
CCCCN1C(C(=O)c2ccccc2)=C(OC(=O)CC)c2ccccc2S1(=O)=O	98	-11	8.2*	18*
CN(C)S(=O)(=O)c1ccc2oc(NN)nc2c1	.	-18	90	90
NC(=O)CSc1nc2ccccc2c(=O)n1-c1ccccc1	.	-37	99	80
O=C(NCc1ccco1)/C(=C\c1ccc(Br)cc1)NC(=O)c1ccccc1	101	-17	104	102
Oc1ccc(-c2ccccc2)cc1Br	95	-12	72	45
CCn1cc(S(=O)(=O)c2cc(C)cc(C)c2)c(=O)c2cc(F)c(N3CCCCC3)cc21	101	.	112	92
Cc1ccc(NC(=O)CSCc2nc3cccnc3n2C2CCCCC2)cc1	109	-22	.	.
CC(=O)N(Cc1ccccc1)C1CCCc2c1[nH]c1ccc(C)cc21 (stereo unspecified)	110	.	70	88
COc1cc(OC)cc(C(=O)N2CCc3c(c(C(=O)NCc4ccc(Cl)cc4)nn3C)C2)c1	106	-3	.	.
CCN(c1ccccc1)S(=O)(=O)c1ccc(N2CCCCS2(=O)=O)cc1	108	-9	.	.
O=C1COc2cc(S(=O)(=O)CCC(=O)N3CCCCCC3)ccc2N1	106	.	92	81
Cc1ccc(N2CC(c3nnc(NC(=O)c4ccco4)s3)CC2=O)cc1C (stereo unspecified)	96	-12	102	96
Cc1c2ccc(=O)ccc2c(C)n1C	100	-84	85	76
O=C(NCCc1ccccc1)C1CCCCC1C(=O)OCC(F)(F)F (stereo unspecified)	.	-5	91	80
O=C(O)C1Cc2c([nH]c3ccccc23)C(c2ccccc2)N1 (stereo unspecified)	.	-5	106	88
O=C(CN1C(=O)c2ccccc2C1=O)Nc1ccc(S(=O)(=O)Nc2nccs2)cc1	99	-40	88	85
CCOc1ccc(NC(=O)CC#N)cc1	.	-12	79	85

Single records, as listed above. Order of values: GIV Gai3 FP	HCMV UL50-53 inh	Sa growth inh	Sa growth inh second temp
Entry for CN(C)S(=O)(=O)c1ccc2oc(NN)nc2c1 → .	-18	90	90
Entry for O=C(CN1C(=O)c2ccccc2C1=O)Nc1ccc(S(=O)(=O)Nc2nccs2)cc1 → 99	-40	88	85
Entry for Cc1c2ccc(=O)ccc2c(C)n1C → 100	-84	85	76
Entry for Cc1ccc(NC(=O)CSCc2nc3cccnc3n2C2CCCCC2)cc1 → 109	-22	.	.
Entry for CC(=O)N(Cc1ccccc1)C1CCCc2c1[nH]c1ccc(C)cc21 (stereo unspecified) → 110	.	70	88

(next part)
SMILES	GIV Gai3 FP	HCMV UL50-53 inh	Sa growth inh	Sa growth inh second temp
O=C1c2cccc3cccc(c23)N1C(=O)C1CCCCC1	108	-6	101	65
Cn1nnnc1SCC(=O)CSc1nnnn1C	.	13	97	99
CCC(C)(NC(=O)Cc1ccccc1)C(=O)Nc1ccc2c(c1)OCCO2 (stereo unspecified)	98	-25	105	85
CCCNc1c(NC(=O)c2ccc3c(c2)OCO3)c(=O)oc2ccccc12	112	-37	88	99
Cc1nn(-c2ccccc2)nc1C(=O)ONC(=O)c1ccccc1	111	-13	99	94
O=C(O)c1c[nH]c2ccc(F)cc2c1=O	.	-8	100	87
CCS(=O)(=O)NCCc1csc2nc(-c3ccc(C)cc3)nn12	102	.	128	89
c1ccc(CCn2c(SCc3nnc(-c4ccccc4)o3)nc3ccccc32)cc1	.	-2	120	76
Cc1ccc(NC(=O)C2CCN(S(=O)(=O)c3ccc4c(c3)C(C)(C)C(=O)N4C)CC2)cc1C	102	-12	.	.
Cn1c(=O)c2c(ncn2CCCCn2cnc3c2c(=O)n(C)c(=O)n3C)n(C)c1=O	100	-20	91	91
COC(=O)c1ccc(NC(=O)CC2C(=O)N(c3ccc(Cl)cc3)C(=O)N2Cc2cccs2)cc1 (stereo unspecified)	104	.	91	93
COc1cc(OC)c(NC(=O)CCCn2nc(C)c3sc4ccccc4c3c2=O)cc1Cl	101	-17	100	77
S=c1nccc(-c2ccccc2)[nH]1	.	-16	91	71
N#CCC(=O)Nc1ccc(C(F)(F)F)cc1N1CCOCC1	.	-18	138	94
Cc1cc(C)c(C)c(S(=O)(=O)N2CCNCC2)c1C	.	14	83	99
Cn1c(/C=C/C=C/N2CCCC2)nc2ccccc2c1=O	111	29	85	68
Cc1nn2c(-c3ccc4c(c3)OCO4)ccnc2c1-c1ccccc1	107	-14	.	.
COc1cccc(CNC(=O)CCCN2C(=O)CSc3c2c(C)nn3-c2ccccc2)c1OC	105	.	94	92
CC(C)Oc1ccc(CNC(=O)c2ccc3c(c2)N(C)C(=O)C2CCCCN32)cc1 (stereo unspecified)	103	.	90	92
O=C(NCc1cccs1)c1cc(-c2ccccc2)oc1C(F)(F)F	105	-25	90	88

Single entries from above.
Sa growth inh, `CC(C)Oc1ccc(CNC(=O)c2ccc3c(c2)N(C)C(=O)C2CCCCN32)cc1` (stereo unspecified) → 90
HCMV UL50-53 inh, `Cc1cc(C)c(C)c(S(=O)(=O)N2CCNCC2)c1C` → 14
GIV Gai3 FP, `CCCNc1c(NC(=O)c2ccc3c(c2)OCO3)c(=O)oc2ccccc12` → 112

Carrying on.
SMILES	GIV Gai3 FP	HCMV UL50-53 inh	Sa growth inh	Sa growth inh second temp
O=C1c2ccccc2C(=O)N1COc1cccc2cccnc12	102	-36	57	55
CC1CCN(S(=O)(=O)c2cc(Br)ccc2Br)CC1	100	.	98	90
CCCSc1ncc(Cl)c(C(=O)Nc2sc(C(C)=O)c(C)c2C(=O)OCC)n1	101	-9	107	78
CCc1cccc2c(C(=O)CSc3nnnn3C3CCCC3)c[nH]c12	.	-10	112	93
Cc1nn2c(=O)cc(COc3ccc(/C=C(\C#N)C(=O)Nc4ccccc4C)cc3)nc2s1	99	-9	104	72
O=C(CC1CCCC1)NC12CC3CC(CC(C3)C1)C2	.	-12	112	90
CCOc1ccccc1NC(=O)C1CCN(c2ncccn2)CC1	105	-5	58	83
O=c1[nH]c2cc(C(F)(F)F)ccc2n(Cc2ccccc2)c1=O	.	-8	88	69
COc1nnc(-c2ccc(C)cc2)c2ccccc12	109	-4	.	.
O=C(Cc1ccc(-c2ccccc2)cc1)NCCS(=O)(=O)N1CCN(c2ccccc2F)CC1	106	.	93	92

Four compounds drawn at random from those above:
SMILES	GIV Gai3 FP	HCMV UL50-53 inh	Sa growth inh	Sa growth inh second temp
Cc1nn2c(=O)cc(COc3ccc(/C=C(\C#N)C(=O)Nc4ccccc4C)cc3)nc2s1	99	-9	104	72
CCCSc1ncc(Cl)c(C(=O)Nc2sc(C(C)=O)c(C)c2C(=O)OCC)n1	101	-9	107	78
CCc1cccc2c(C(=O)CSc3nnnn3C3CCCC3)c[nH]c12	.	-10	112	93
O=c1[nH]c2cc(C(F)(F)F)ccc2n(Cc2ccccc2)c1=O	.	-8	88	69

From PubChem BioAssay

Not a hit list. Share with any hit: about 0.8%.
